LMNA splice mod = modulators of lamin A splicing. HeLa LMNA splicing GFP/RFP minigene ratio, 48 h. Potency, µM (titrated, usually from 46.1 µM), without a hit: at the top dose ratio change, negative = inhibition, hits mostly inhibitors. 0.01% of 200,000 active. AID 1487; active = well fitted inhibition curve with a large enough effect in the signal ratio, with a control signal flat, not every such curve was filed as active; inconclusive = small, poorly fitted or top-dose-only effect, or effect the other way, or a change in a side signal; the % refers to the signal ratio; also: % is scaled to controls: 0 for no effect and ±100 for the full control effect
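S3 HeLa stable clones carrying a lamin A-EGFP splicing minigene plus DsRed2 were seeded at 600 cells/well in Opti-MEM with 2% FBS, pin-dosed and incubated 48 h at 37°C. Acumen cytometry (488 nm) gave the GFP/RFP total-intensity ratio.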
ALDH1A1 inh = ALDH1A1 (human) enzyme inhibition; P00352; Purified ALDH1A1, NADH fluorescence, propionaldehyde substrate; Potency, µM (top dose mostly 75.3 µM), inactives show at the top dose activity, negative = inhibition, most hits filed as inhibitors; 7.3% of 220,000 active; AID 1030; active = well fitted inhibition curve with a large enough effect, not every such curve was filed as active; inconclusive = small, poorly fitted or top-dose-only effect, or another doubt; inactive = no such curve, though single readings can be large or run the other way;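 also: plate controls were no enzyme wells and a reference inhibitor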
Target sequence (P00352 whole entry, looked up): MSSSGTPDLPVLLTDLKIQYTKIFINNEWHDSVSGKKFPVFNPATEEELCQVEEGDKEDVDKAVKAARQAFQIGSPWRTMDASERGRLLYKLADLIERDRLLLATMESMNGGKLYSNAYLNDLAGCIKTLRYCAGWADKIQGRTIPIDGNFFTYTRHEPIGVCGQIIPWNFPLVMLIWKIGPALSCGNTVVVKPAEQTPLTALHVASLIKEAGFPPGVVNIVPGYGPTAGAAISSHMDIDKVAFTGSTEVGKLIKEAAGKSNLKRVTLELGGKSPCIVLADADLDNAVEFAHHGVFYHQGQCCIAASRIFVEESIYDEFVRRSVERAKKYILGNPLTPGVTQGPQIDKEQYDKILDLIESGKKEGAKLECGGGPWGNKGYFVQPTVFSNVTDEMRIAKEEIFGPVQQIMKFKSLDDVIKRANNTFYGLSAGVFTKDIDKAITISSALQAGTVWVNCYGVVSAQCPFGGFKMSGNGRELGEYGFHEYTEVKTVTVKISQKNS
TRb SRC2 PPI = inhibitors of human thyroid hormone receptor beta-SRC2 interaction; AID 1469; P10828; TRbeta-SRC2 peptide binding, fluorescence polarization; receptor liganded with 1 µM T3; Potency, µM (highest dose often 106 µM), inactives show at the highest dose activity change, negative = inhibition, usual class: inhibitors; 0.065% of 280,000 active;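 also: plate controls were bound peptide for no effect and peptide without receptor for full effect; nearly all actives have a fitted effect of over 50% in size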
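Binding of a 20-amino-acid Texas Red SRC2 peptide (20 nM) to TRb ligand-binding domain (0.6 uM) with agonist T3 at 1 uM was followed by fluorescence polarization after a 5 hr room-temperature incubation.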
TR SRC2 fluor cs = alters Texas Red total fluorescence, flagging assay interference | TRb/SRC2 Texas Red total fluorescence interference | Potency, µM (doses to about 106 µM), for the others: at the highest dose fluorescence change, negative = quenching | 0.29% of 280,000 active | AID 1479; active = well fitted curve in either direction with a large enough effect; inconclusive = small, poorly fitted or top-dose-only effect; also: % is scaled to controls: 0 for no effect and ±100 for the full control effect
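Human TRβ ligand-binding domain (0.6 uM) and Texas Red SRC2 peptide (20 nM) in Tris buffer with 1 uM T3 and 5% DMSO were incubated with pinned compound for 5 hr at ambient temperature. Total fluorescence was computed as S + 2P (555/632 nm).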
JMJD2E inh = JMJD2E (human) inhibition. 1.6% of 230,000 active. JMJD2E catalytic domain, FDH-coupled NADH fluorescence (FDH is formaldehyde dehydrogenase). Potency, µM (top dose mostly 57.1 µM), inactives show top-dose activity change, negative = inhibition, most hits filed as inhibitors; active = well fitted inhibition curve with a large enough effect, not every such curve was filed as active; inconclusive = small, poorly fitted or top-dose-only effect, or another doubt; inactive = no such curve, though single readings can be large or run the other way;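 also: 0% = wells with enzyme and -100% = buffer wells without enzyme; nearly all actives have a fitted effect of over 50% in size; many of its hits are not listed in these tables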
SMN2 splice up = SMN2 splice variant enhancement; HEK293 SMN2-luciferase splicing reporter, luminescence, 30-36 h; Potency, µM (series often up to 46.1 µM), for inactives: at the top dose activity change, positive = activation, hits mostly activators; 2.8% of 210,000 active; also: % of control where 0% means no effect; nearly all actives have a fitted effect of over 55% in size
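HEK293 cells carry an SMN2 […]–luciferase reporter in which exon 7 inclusion puts luciferase in frame. Cells were plated 10-12 h before compound addition, then incubated 30-36 h at 37C. ONE-Glo luminescence was read; sodium butyrate at 4.5 mM final served as control.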
RECQ1 helicase = inhibitors of human RECQ1 DNA helicase | P46063 | RECQ1 DNA unwinding, red fluorescence kinetic read | Potency, µM (highest dose often 57.3 µM), for inactives: top-dose activity, negative = inhibition, usual class: inhibitors | 0.54% of 240,000 active | AID 2549;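 also: plate controls were vehicle for no effect and no enzyme for full effect; nearly all actives have a fitted effect of over 30% in size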
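RECQ1T1 50 nM; forked duplex (20 bp + 30-nt ss tails) 200 nM, ATP 2 mM final; pH 8.0, 2 mM MgCl2, 2.5 ug/ml poly(dI-dC); 15 min compound preincubation; discontinuous kinetic read over 2 h at RT.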
Starred values were filed as active, the others as inactive; ? = inconclusive; · = not tested or not shown; [ ] = remark or other dose. Unless noted, calls follow the shape of the dose curve; as a rule, active = well fitted curve in the direction sought with a large enough effect; inconclusive = small, poorly fitted or top-dose-only effect, or another doubt; inactive = no such curve, though single readings can be large; an effect the other way counts as inactive or inconclusive. Potency is read from the fitted curve at half-maximal effect. This is a subset, so the mix of outcomes need not match the whole.

1: Cc1nc(SCCCSc2n[nH]c(C)n2)n[nH]1
2: COc1ccc(CNC2C[C@H]3CCCC(=O)N4CC[C@@H](C2)[C@@H]34)cc1 (stereo partly drawn)
3: NC(=O)NC(CC(=O)NCCCc1ccccc1)c1ccc(Cl)cc1 (stereo not drawn)
4: Cn1c(=O)c2c(nc(-n3ccnc3)n2Cc2ccc(Cl)cc2Cl)n(C)c1=O
5: CN(C)c1cccc(N=C2C=C(N3CCOCC3)CC(C)(C)C2)c1
6: C=CCn1c(CNC(=O)c2cccs2)nnc1SCC(=O)Nc1ccc(C(=O)O)cc1

Screen / compound no.,1,2,3,4,5,6
LMNA splice mod,-2.6%,·,·,6.2%,10.7%,11.9%
ALDH1A1 inh,10.0%,-5.1%,·,11.9%,2.7%,0.4%
TRb SRC2 PPI,1.0%,-0.2%,12.6µM*,5.7%,-0.6%,-6.1%
TR SRC2 fluor cs,-4.7%,-0.5%,?,0.0%,-0.6%,-5.3%
JMJD2E inh,5.8%,·,-0.3%,1.2%,-7.3%,0.9%
SMN2 splice up,7.6%,·,·,-3.1%,?,8.8%
RECQ1 helicase,-0.4%,-1.3%[81.1 µM],-9.1%,-1.6%,6.2%,-6.3%

One compound at a time, as listed above:
`C=CCn1c(CNC(=O)c2cccs2)nnc1SCC(=O)Nc1ccc(C(=O)O)cc1` across the screens: LMNA splice mod: 11.9%; ALDH1A1 inh: 0.4%; TRb SRC2 PPI: -6.1%; TR SRC2 fluor cs: -5.3%; JMJD2E inh: 0.9%; SMN2 splice up: 8.8%; RECQ1 helicase: -6.3%
`Cn1c(=O)c2c(nc(-n3ccnc3)n2Cc2ccc(Cl)cc2Cl)n(C)c1=O` across the screens: LMNA splice mod: 6.2%; ALDH1A1 inh: 11.9%; TRb SRC2 PPI: 5.7%; TR SRC2 fluor cs: 0.0%; JMJD2E inh: 1.2%; SMN2 splice up: -3.1%; RECQ1 helicase: -1.6%

(continued)
7: COc1ccc(-n2c(=O)cc(N3CC(C)OC(C)C3)[nH]c2=O)cc1 (stereo not drawn)
8: CCN(CC)c1cc(C)c2ccccc2n1
9: O=C(Nc1nnc(CCN2CCCCC2)s1)c1ccc(Br)cc1
10: O=C(Nc1c2c(nc3ccccc13)CCCC2)c1cccc([N+](=O)[O-])c1
11: CCn1c(CCNC(=O)c2ccc(OC)cc2)nnc1SCc1ccc(Cl)cc1Cl
12: COc1ccc(OCCSc2nnc(CCNC(=O)c3ccc(OC)cc3)n2C)cc1
13: CCOc1ccccc1NC(=O)CSc1nc2c(c(=O)n1C)SC(C)C2 (stereo not drawn)

Screen / compound no.,7,8,9,10,11,12,13
LMNA splice mod,-5.5%,2.6%,·,-24.2%,?,14.1%,-9.9%
ALDH1A1 inh,-5.8%,0.1%,-4.4%,8.2%,-11.6%,-7.5%,-10.3%
TRb SRC2 PPI,-5.9%,-1.0%,7.9%,3.3%,-2.6%,7.4%,-5.3%
TR SRC2 fluor cs,-0.9%,-4.3%,-1.7%,-2.6%,-10.1%,-0.6%,-0.6%
JMJD2E inh,-2.5%,-28.5%,7.2%,0.6%,5.2%,-1.9%,2.8%
SMN2 splice up,-10.7%,2.9%,-28.0%,0.4%,-20.4%,-25.8%,9.8%
RECQ1 helicase,-2.4%,-2.7%,-8.5%,-13.0%,-2.4%,-6.1%,-15.4%

Ordered by molar mass (rising): part of the list above.
5: CN(C)c1cccc(N=C2C=C(N3CCOCC3)CC(C)(C)C2)c1
10: O=C(Nc1c2c(nc3ccccc13)CCCC2)c1cccc([N+](=O)[O-])c1
11: CCn1c(CCNC(=O)c2ccc(OC)cc2)nnc1SCc1ccc(Cl)cc1Cl

Screen / compound no.,5,10,11
LMNA splice mod,10.7%,-24.2%,?
ALDH1A1 inh,2.7%,8.2%,-11.6%
TRb SRC2 PPI,-0.6%,3.3%,-2.6%
TR SRC2 fluor cs,-0.6%,-2.6%,-10.1%
JMJD2E inh,-7.3%,0.6%,5.2%
SMN2 splice up,?,0.4%,-20.4%
RECQ1 helicase,6.2%,-13.0%,-2.4%

Compound activity from PubChem BioAssay.
